TRPML1 blocker: blocks the human TRPML1 channel | Q9GZU1 | hit rate 0.02% among 390,000 | TRPML1-inducible cells, Ca2+ dye fluorescence, FDSS; active compounds read low; inhibition of EC80 agonist-evoked calcium signal | activity change, negative = inhibition, % (concentration not given with the values); in the data active means activity change below about -50%; inconclusive means about -30% to -50%; inactive means above about -30%;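 note: stimulus is agonist 54-4 at its EC80 concentration; % is set by controls: 0 for no effect and ±100 for the full control effect; the text of the record puts the active cut at -80%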
Target sequence (Q9GZU1 whole entry, looked up): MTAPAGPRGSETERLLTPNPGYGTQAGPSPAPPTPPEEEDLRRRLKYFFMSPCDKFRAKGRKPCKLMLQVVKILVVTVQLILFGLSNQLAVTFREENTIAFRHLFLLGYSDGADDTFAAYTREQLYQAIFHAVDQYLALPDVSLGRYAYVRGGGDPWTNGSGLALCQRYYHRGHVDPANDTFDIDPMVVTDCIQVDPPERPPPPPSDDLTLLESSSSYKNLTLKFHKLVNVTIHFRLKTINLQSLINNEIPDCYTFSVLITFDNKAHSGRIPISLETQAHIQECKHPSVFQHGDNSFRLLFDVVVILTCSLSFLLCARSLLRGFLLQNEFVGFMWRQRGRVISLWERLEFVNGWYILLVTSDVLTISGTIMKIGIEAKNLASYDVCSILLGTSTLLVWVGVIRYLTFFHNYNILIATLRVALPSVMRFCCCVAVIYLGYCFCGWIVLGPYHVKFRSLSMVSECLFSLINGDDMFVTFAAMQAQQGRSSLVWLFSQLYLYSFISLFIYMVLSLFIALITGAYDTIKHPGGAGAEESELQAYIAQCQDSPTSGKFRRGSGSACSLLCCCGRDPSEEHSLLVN
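TRPML1-DL cells, Tet-induced overnight (~16 h, 37 °C) at 1,500 cells/well, were loaded with Ca8 no-wash dye plus quencher for 45-90 min at room temperature. Compounds were pinned during FDSS kinetic reading; agonist 54-4 at EC80 (4 uM final) then added.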
PINK1 modulator: PINK1 expression modulation. AID 624263. hit rate 0.2% among 410,000. Potency, µM (top dose mostly 76.6 µM), for the others: at the top dose activation (PINK1 increase), hits mostly activators. PINK1 immunofluorescence, high-content cytometry, 24 h; active = well fitted activation curve with a large enough effect; inconclusive = small, poorly fitted or top-dose-only effect; inactive = flat fitted curve, though single readings scatter; cell line not stated here;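 note: potency is the fitted concentration of half-maximal effect; % of control where 0% means no effect; nearly all actives have a fitted effect of over 65% in size; a mitochondrial uncoupler was the plate control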
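Decision-based qHTS: stable cells, 24 h exposure to five compound concentrations, CCCP as control. Fixed cells stained for PINK1 plus nuclear, mitochondrial and cell markers, cytometer read.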
TRPML1 ag: human mucolipin-1 channel agonism | Q9GZU1 | TRPML1-expressing cells, Ca2+ dye fluorescence, FDSS; host cell line not named in the record; reference of the full effect not given here | activation, % (test concentration not listed) | hit rate 0.12% among 410,000 | AID 624414; in the data active = activation above about 50%; inconclusive = about 30% to 50%; inactive = below about 30%; note: 0% is about no effect; the text of the record puts the active cut at 80%
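In this qHTS format, compounds were pin-transferred onto Ca8-dye-loaded TRPML1-DL cells induced with Tet overnight, and intracellular Ca2+ fluorescence was recorded kinetically for 110 s after a 10 s baseline. A subsequent 4uM final 54-4 (EC80) addition followed by a second 110 s read served as the antagonist phase.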
D2 agonist: human D2 receptor agonism in beta-arrestin assay. DiscoveRx PathHunter D2 beta-arrestin, luminescence, 90 min; 100% = 57 uM dopamine signal. activation, % (no concentration beside the values). hit rate 0.084% among 360,000. P14416; in the data active = activation above about 40%; inconclusive = about 15% to 40%; inactive = below about 15%; note: compound concentration not given in the record; the text of the record calls up to 30% inactive
Target sequence (P14416 whole entry, looked up): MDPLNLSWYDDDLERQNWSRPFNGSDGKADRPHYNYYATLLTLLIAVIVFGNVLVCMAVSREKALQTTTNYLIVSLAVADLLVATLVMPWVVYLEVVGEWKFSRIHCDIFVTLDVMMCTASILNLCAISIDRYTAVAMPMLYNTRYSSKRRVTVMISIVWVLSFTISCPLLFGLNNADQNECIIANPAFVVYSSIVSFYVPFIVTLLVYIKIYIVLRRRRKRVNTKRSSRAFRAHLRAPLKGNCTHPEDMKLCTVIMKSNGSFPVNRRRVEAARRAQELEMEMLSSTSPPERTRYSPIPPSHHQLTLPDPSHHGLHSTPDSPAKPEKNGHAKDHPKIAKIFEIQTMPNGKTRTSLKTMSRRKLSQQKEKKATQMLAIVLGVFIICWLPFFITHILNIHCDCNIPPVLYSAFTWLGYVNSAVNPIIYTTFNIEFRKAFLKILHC
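DiscoveRx PathHunter D2 beta-arrestin cells (2,100/well) attached overnight, then compound-stimulated 90 min at 37 C in HBSS/10 mM HEPES/0.1% Tween-20 buffer; beta-galactosidase complementation read by luminescence after 1 h at ambient temperature. Dopamine 57 uM final (EC100) as control.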
Six1-Eya2 blk: inhibitors of human Six1/Eya2 interaction | hit rate 0.56% among 360,000 | AID 651725 | AlphaScreen GST-Six1/His-Eya2 binding, biochemical; active compounds read low; control for the full effect not named in the record | activity change, % (test concentration not listed) | Q15475+O00167; in the data active = activity change below about -65%; inconclusive = about -30% to -65%; inactive = above about -30%; note: % is set by controls: 0 for no effect and ±100 for the full control effect
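AlphaScreen luminescence read after one hour at 37 °C in darkness. Pin-transferred compounds met GST-Six1 and His-Eya2 protein (5X stock 250 nM/500 nM) plus glutathione donor and Ni-chelate acceptor beads (5X, 50 ug/mL).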
CtBP-E1A blk: blocks the CtBP interaction with E1A | hit rate 0.49% among 340,000 | activity change, % (test concentration not listed) | AlphaScreen GST-E1A/His-CtBP binding, 1536-well; active compounds read low; control for the full effect not named in the record | AID 651724; in the data active means activity change below about -65%; inconclusive means about -30% to -65%; inactive means above about -30%; note: % is set by controls: 0 for no effect and ±100 for the full control effect
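In 5 uL wells, 23 nL compound meets equimolar GST-E1A and His-CtBP (5X stock 125 nM each) for 2 h, 37 °C. Beads (5X, 50 ug/mL) then 1 h, 37 °C, dark.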
Starred values were filed as active, the others as inactive; ? = inconclusive; . = no result given; & = joins results of further samples; [ ] = another dose, or the depositor's remark.

SMILES | TRPML1 blocker | PINK1 modulator | TRPML1 ag | D2 agonist | Six1-Eya2 blk | CtBP-E1A blk
COc1cc(N=Nc2cccc(S(N)(=O)=O)c2)c2ccccc2c1N | -9 | 0.4% | 0.3 | -4.0 | ? | -71*
CCc1noc(C)c1C(=O)Nc1nc(-c2ccccc2)cs1 | -8 | 10.0% | 1.5 | 3.5 | 2 | 5
CC(C)N1CCc2nc(SCC(=O)Nc3cccc(F)c3)[nH]c(=O)c2C1 | 9 | -1.3% | -0.2 | . | . | .
CC1=C/C(=N\OC(=O)/C=C/c2ccccc2)C(C)=CC1=O | -8 | -0.2% | 0.8 | 4.4 | 8 | -11
CCOC(=O)C1=C(C)N(c2ccccc2)C(=O)/C1=C\c1ccc(O)c(OC)c1 | . | 1.6% | . | 14 | 2 | -8
CCN(CC)Cc1cc(Nc2ccnc3cc(Cl)ccc23)ccc1O | 3&15 | 11%&0.9% | 3.5&0.1 | -3.5&-4.1 | -6&0 | -22&8
Clc1cccc(Cl)c1NC1=NCCC1 | -5 | -4.0% | 1.1 | -0.2 | -3 | -18
O=C(O)c1cccc(N2C(=O)c3cccc(Oc4ccc(Cl)cc4)c3C2=O)c1 | 3 | 1.5% | 2.4 | -2.8 | -3 | .
COc1ccc(-c2c(-c3ccc(OCC(=O)NN)cc3O)n[nH]c2C)cc1 | 19 | 0.0% | 0.9 | -1.0 | 0 | -1
CCOC(=O)COc1ccc(Oc2nc(C)cc(OC)n2)nn1 | 7 | 4.4%[38.3 µM] | 0.8 | -3.7 | 2 | 8
CN1CCC(N(C)C(=O)c2ccc(Cl)c(S(=O)(=O)Nc3ccc(Cl)cc3)c2)CC1 | 5 | 0.3% | 0.8 | -4.4 | 6 | -19
CCC(=O)Nc1c(-c2ccc(C)cc2)c(=O)c2ccccc2n1C | 5 | 2.0% | 1.0 | 0.0 | 11 | 4
Cc1cccc2c(=O)n3c(nc12)CCCCC3 | -3 | -1.0% | -1.0 | -3.9 | -3 | -1
O=C(NCc1ccco1)C(=O)NCC1OCCN1S(=O)(=O)c1ccccc1 (stereo not given) | 4 | -0.9% | -0.5 | -0.1 | 2 | 8
COc1ccc(F)cc1-c1cc(C(=O)NCc2cccc(Cl)c2)[nH]n1 | . | 4.4% | -0.2 | 5.8 | -7 | -1
C=CCn1c(SCC(=O)N2CCc3ccccc3C2)nc2sc(C)c(C)c2c1=O | 61 | -0.1% | 2.0 | 1.1 | 0 | -26
CSc1nnc2ccc(-c3ccc(C)cc3)nn12 | 0 | 4.2% | 1.0 | 2.6 | -1 | .
C=CCN1c2ccccc2[C@]23C[C@@H](C(=O)OC)N(C(=O)C4CCC4)C2=NC(C(=O)OC)=C(C(=O)OC)[C@H]13 | 5 | 2.9% | 0.4 | -2.6 | -17 | -13
O=C(Cc1ccccc1)NNS(=O)(=O)c1ccccc1[N+](=O)[O-] | 11 | 1.0% | 0.0 | 3.1 | 5 | 8
CCCN(CCC)C(=O)Cn1c(=O)n(CCC(=O)NCCc2ccccc2)c(=O)c2ccccc21 | 1 | 0.7% | 0.8 | -1.0 | 6 | 6
CCOc1ccccc1C1CC(=O)Nc2cc(OC)c(OC)c(OC)c21 (stereo not given) | 5 | 6.1% | -0.2 | 1.8 | -2 | 1
N#C/C(=C\c1ccc(Cl)cc1)C(=O)NC1CC1 | 10 | 1.9% | -0.3 | -5.7 | -13 | 1
N#Cc1c(NC(=O)/C=C/C(=O)O)sc2c1CCN(Cc1ccccc1)C2 | -2 | 7.2% | 5.5 | 0.3 | -1 | .
Cc1ccc(S(=O)(=O)N(C)CC(=O)N2CCOCC2)cc1 | -13 | 0.1% | -0.7 | -3.9 | 2 | 5
COc1ccc(NC(=S)N(CCCN2CCN(C)CC2)Cc2cccs2)cc1 | 15 | -2.4% | -0.3 | -1.5 | 3 | 3
CCOc1ccccc1Nc1nnc(C)c(=O)[nH]1 | 9 | -0.3% | 0.2 | -3.6 | -2 | -1
CC1CC(C)CN(S(=O)(=O)c2ccc3c(c2)oc(=O)n3CC(=O)NCc2cccnc2)C1 (stereo not given) | 8 | 2.1% | 0.0 | -7.1 | -3 | 8
COc1ccc(C(CC(=O)N2CCCC2)C(C)C)cc1 (stereo not given) | 2 | -4.0% | 2.3 | -16 | -11 | -11
CC(=O)c1sc(-c2ccccc2Cl)nc1C | -16 | 0.1% | 3.3 | -5.0 | -1 | -3
CCCc1cc2c(cc1N(C)S(=O)(=O)c1ccccc1)OCO2 | -1 | -1.2% | 2.1 | -4.8 | 11 | 2
CCOC(=O)C1CCN(C(=O)Cn2cc(C(=O)c3ccco3)c3ccccc32)CC1 | 18 | -0.6%[38.3 µM] | 2.5 | 1.2 | 4 | 4
Oc1ccc2ccccc2c1/C=C/c1ccc2c(Br)cc(Br)c(O)c2n1 | 2 | ? | 3.0 | 2.2 | 8 | 0
CCC1CCc2sc(C(=O)N3CCCN(C)CC3)cc2C1 (stereo not given) | 1 | -0.5% | -0.3 | -0.9 | 0 | 5
COc1ccc(NC(=O)/C(C#N)=C\c2cc(OC)c(OCc3ccc(C(=O)O)cc3)cc2Br)cc1 | -10 | 0.9% | 0.3 | 8.2 | -8 | -8
C=CCC1C=C(Cc2ccccc2)CC(CC=C)N1 (stereo not given) | -15 | 3.0% | -0.3 | -3.4 | 12 | -3
O=C(COC(=O)c1ccc(Br)cc1)NCc1ccccc1 | 10 | 4.3% | 1.0 | -1.4 | -1 | -4
Cc1csc2nc(COc3ccccc3NC(=O)c3ccccc3Cl)cc(=O)n12 | 5 | -0.4% | 0.9 | . | . | .
COc1cc(CCCN2C(=O)C(=O)NC[C@@H]2c2ccccc2)cc(OC)c1OC | 12 | -1.7% | -0.8 | -0.5 | -3 | 3
COc1ccccc1NC(=O)COC(=O)Cn1cnc2c1c(=O)n(C)c(=O)n2C | 49 | 1.0% | -0.2 | -1.5 | -1 | 4
COc1ccc(CNC(=O)c2ccc(CSc3nc4ccncc4n3Cc3ccccc3F)cc2)cc1 | -5 | 3.1% | 1.1 | . | . | .
COc1cc(/C=N/NC(=O)CSc2ccccn2)ccc1O | 16 | -0.8% | 0.4 | -2.0 | -8 | 4
Cn1nc(C(=O)Nc2nnc(C3CC3)s2)c2ccccc2c1=O | ? | 2.4% | 0.3 | -8.4 | -3 | -6
CC(C)CCNC(=O)Nc1ccc2c(c1)N(C)C(=O)CS2 | -5 | -0.9% | 0.6 | -0.7 | -1 | -10
COc1ccc(OC)c(NC(=O)Cn2c(=O)n(Cc3ccccc3)c(=O)c3ccccc32)c1 | 0 | 0.1% | -0.1 | . | . | .
O=C(Nc1nnc([C@@H]2O[C@H](CO)[C@@H](O)[C@H]2O)s1)Nc1ccccc1C(F)(F)F | 86 | -0.3% | 1.4 | -4.0 | 4 | 5
CN(C(=O)c1cccc(NC(=O)Cc2ccc(NC(=O)C3CCN(C(=O)C4CCC4)CC3)cc2)c1)C1CCCC1 | -11 | 0.3% | -0.1 | -1.3 | -4 | -11
CCN(c1ccccc1)S(=O)(=O)c1ccc(F)cc1 | 2 | 1.9%[38.3 µM] | 0.8 | -0.9 | 9 | 8
Cc1nc(NCCc2ccc(O)cc2)c2nnn(Cc3ccccc3)c2n1 | 6 | 0.7% | 1.6 | 1.7 | -17 | -28
COc1cc(NS(=O)(=O)c2ccc3c(c2)NC(=O)CO3)cc(OC)c1 | -5 | -0.2% | -0.3 | -2.3 | 3 | 2
COc1ccc(-c2cnc3c(NC=O)cc(-c4ccc(F)cc4)cn23)cc1OC | . | -0.2% | -0.9 | 5.8 | -7 | -5
Cc1c(C(=O)Nc2ccc(OC(F)(F)F)cc2)sc2nc3n(c(=O)c12)CCC3 | -3 | 7.3% | -0.2 | -0.9 | -4 | -1
O=C(COc1cc2oc(=O)c3c(c2cc1Cl)CCC3)NCCCN1CCOCC1 | 9 | 0.7% | -0.2 | -6.2 | ? | -66*
Cc1ccc(N)cc1-n1c(C)ccc1C | -7 | -0.1% | 1.1 | 0.9 | -9 | -2
CC1CCCCN1CCn1c(=S)[nH]c2cc3c(cc2c1=O)OCO3 (stereo not given) | 2 | -0.4% | -1.0 | -1.5 | 1 | 9
COc1ccc(S(=O)(=O)Nc2ccccc2C(=O)OC2CCCN(C)C2)cc1OC (stereo not given) | 18 | 3.9% | 0.7 | -3.2 | 0 | 4
CSc1ccccc1NC(=O)c1cc(C2CC2)on1 | -5 | 1.6% | -0.6 | -0.3 | 26 | 11
CN(C)c1ccc(C(=O)Nc2ccc(O)c3c(=O)cc(-c4ccccc4Cl)oc23)cc1 | 7&-14 | 0.1% | 0.0&1.0 | -2.1 | -19 | -24
CC(=O)Nc1ccc(C(=O)N2CCCC(c3cc(C(=O)Nc4ccccc4Cl)no3)C2)cc1 (stereo not given) | . | 3.7% | 0.1 | 0.9 | -10 | 1
Cc1ccc(NC(=O)CN(C)C(=O)c2ccccn2)cc1 | -2 | 0.8% | 0.8 | -2.6 | 3 | 7
CC(C)c1ccc(C2/C(=C(/O)c3ccc(F)cc3)C(=O)C(=O)N2CCCN2CCOCC2)cc1 (stereo not given) | . | 1.9% | . | -2.5 | 6 | .

Results in TRPML1 ag and TRPML1 blocker, for some of the entries so far:
structure	TRPML1 ag	TRPML1 blocker
CN(C(=O)c1cccc(NC(=O)Cc2ccc(NC(=O)C3CCN(C(=O)C4CCC4)CC3)cc2)c1)C1CCCC1	-0.1	-11
CCN(c1ccccc1)S(=O)(=O)c1ccc(F)cc1	0.8	2
Cc1nc(NCCc2ccc(O)cc2)c2nnn(Cc3ccccc3)c2n1	1.6	6

(listing goes on)
SMILES | TRPML1 blocker | PINK1 modulator | TRPML1 ag | D2 agonist | Six1-Eya2 blk | CtBP-E1A blk
COc1ccc(Cn2c(CNS(=O)(=O)c3ccc(C)c(C)c3)nc3cccnc32)cc1 | -2 | -1.5% | -0.5 | . | . | .
CC(NCC1(N2CCOCC2)CCCCC1)C(=O)Nc1ccc(Cl)cc1Cl (stereo not given) | -6 | -0.3% | 0.0 | 1.2 | 1 | 1
O=C(Nc1cc([N+](=O)[O-])ccc1Cl)C1CC1 | -2 | 1.3% | 0.3 | 1.6 | 0 | 7
COc1ccc2[nH]c(=O)cc(C(=O)O)c2c1 | 2 | -0.6% | 4.4 | 0.6 | -11 | 20
CCN(Cc1ccccc1)C(=O)C1CCN(C(=O)Nc2ccccc2)CC1 | 18 | 0.0% | -0.2 | -3.1 | 4 | 11
O=C(NCc1ccco1)C1CCN(C(=O)c2cc3sccc3n2Cc2ccc(F)cc2)CC1 | 9 | -4.1%[38.3 µM] | 0.1 | 0.0 | -7 | 6
O=C(CN1CCOCCOCCOCC1)Nc1ccccc1 | -6 | . | 0.1 | -2.0 | 5 | 9

Ordered by the number under TRPML1 blocker (smallest number first): three from the list above.
structure | TRPML1 blocker
O=C(CN1CCOCCOCCOCC1)Nc1ccccc1 | -6
O=C(Nc1cc([N+](=O)[O-])ccc1Cl)C1CC1 | -2
COc1ccc2[nH]c(=O)cc(C(=O)O)c2c1 | 2

High-throughput results from PubChem BioAssay.
